GIRK2 act = GIRK2 channel activation; P48051; HEK293-GIRK2 thallium flux, Thallos fluorescence; calls only for hits at 25 µM; 63,000 compounds, 0.05% hits;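 active means among the strongest 0.2% of first-round signals and kept after retests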;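 further: first round at about 10 µM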
Target sequence (P48051 whole entry, looked up): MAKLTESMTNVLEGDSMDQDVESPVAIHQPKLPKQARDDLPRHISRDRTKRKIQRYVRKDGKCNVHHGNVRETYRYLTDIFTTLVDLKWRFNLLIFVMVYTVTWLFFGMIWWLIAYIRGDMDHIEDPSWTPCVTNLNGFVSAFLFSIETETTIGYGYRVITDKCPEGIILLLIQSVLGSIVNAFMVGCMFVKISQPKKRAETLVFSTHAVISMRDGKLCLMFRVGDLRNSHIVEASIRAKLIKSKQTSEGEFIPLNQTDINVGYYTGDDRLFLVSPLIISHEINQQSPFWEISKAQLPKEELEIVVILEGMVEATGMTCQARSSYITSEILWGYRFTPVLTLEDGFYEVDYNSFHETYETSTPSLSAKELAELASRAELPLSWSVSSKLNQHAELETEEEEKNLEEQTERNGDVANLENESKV
Calls only; i = inactive. Only part of the results is shown, so the mix of outcomes need not match the whole.

SMILES	GIRK2 act
COc1cc(C(=O)OC2CN(c3nc4c(OC)cccc4s3)C2)cc(OC)c1OC	i
Cc1cccc(-n2ncc3c(=O)n(CC(=O)N4CCCc5ccccc54)cnc32)c1C	i
CCc1nc2c(sc3cccc(F)c32)c(=O)n1CC(=O)Nc1cc(OC)cc(OC)c1	i
Cc1nc(SCC(=O)Nc2ccc(Cl)cc2)nc2c1CCCC2	i
Cc1ccc(N2CCn3c2nn(CC(=O)Nc2ccc(C)cc2C)c(=O)c3=O)cc1	i
CC(C)S(=O)(=O)Nc1ccc(N2CCCS2(=O)=O)cc1	i
O=S(=O)(c1ccc(Br)cc1)N1CCN(c2cnccn2)CC1	i
Cc1ccc2[nH]c3c(=O)n(CCC(=O)NC4CCCCCC4)cnc3c2c1	i
O=S(=O)(NCCn1ncc2c(N3CCCC3)ncnc21)c1ccc(Cl)s1	i
CN1CCN(c2sc(S(=O)(=O)c3ccccc3)nc2S(=O)(=O)c2ccc(Cl)cc2)CC1	i
CC(C)CNc1c([N+](=O)[O-])c(=O)n(C)c2ccccc12	i
CCCn1cc(-c2nc(-c3ccc(OC)cc3OC)no2)c(=O)c2ccccc21	i
COc1ccccc1-c1cc2nc(C)cc(N3CCN(c4ccccn4)CC3)n2n1	i
O=c1[nH]c2c(-c3ccccn3)nsc2c(=O)n1Cc1ccccc1	i
Cc1cccc(S(=O)(=O)C(C#N)c2nc3ccccc3nc2N2CCCC2)c1 (centres undefined)	i
COc1cc(OC)cc(C(=O)N2CCCSCC2CN(C)C)c1 (centres undefined)	i
Cc1noc(-c2ccn3c(=O)n(Cc4nc(Cc5ccccc5C)no4)nc3c2)n1	i
O=C(Cn1c(-c2ccncc2)nc2ccccc21)Nc1ccc2c(c1)OCCO2	i
Cc1ccc(CNC(=O)C2CCN(c3nc4ccsc4c(=O)n3Cc3ccc(F)cc3)CC2)cc1	i
Cc1nc(-c2ccccc2Cl)sc1CNC(=O)NC(C)C	i
CCOc1ccc(NC(=O)CSc2ncccc2-c2nc(C)no2)cc1	i
COc1ccc(/C=C/C(=O)NCCc2csc(-n3cccn3)n2)cc1OC	i
O=C(O)CCCc1ccccc1	i
COc1ccc2c(=O)c3c(oc2c1)C(=O)N(CCCN1CCOCC1)C3c1ccccc1 (centres undefined)	i
O=C(Nc1nccs1)c1cccc(S(=O)(=O)N2CCCC2)c1	i
Cc1nc(SCc2ccccc2F)[nH]c(=O)c1CC(=O)NCc1cccs1	i
O=C(c1ccoc1)N1CCC(CNS(=O)(=O)c2ccc3c(c2)CCO3)CC1	i
COc1cccc2cc(C(=O)Nc3ccc(-n4nnc(C(=O)NC5CC5)n4)cc3)c(=O)oc12	i
O=C(C1CCC1)N1CCC(CSC2=NCCS2)CC1	i
O=C(CN1CC(c2nc(-c3cccnc3)no2)C1)Nc1ccc2c(c1)OCCO2	i
COc1cc(O)cc(C)c1C(=O)OC1C(CO)OC(n2ccc(=O)[nH]c2=O)C1OC(C)=O (centres undefined)	i
CCOc1ccc(C(=O)c2cn(CC(=O)Nc3ccc(OC)cc3)c3ccc(F)cc3c2=O)cc1	i
O=C(NCCOc1ccccc1)c1cnn2c1OCCC2	i
O=C(/C=C/c1cccs1)NCCOc1cccc2cccnc12	i
CCOC(=O)c1ccccc1NC(=O)Cn1c(C)cc(C)c(C#N)c1=O	i
COc1ccc(Cl)cc1C(=O)N1CCN(Cc2nc(C3CC3)cs2)CC1	i
Cc1onc(-c2ccccc2Cl)c1C(=O)N1CCC(Oc2ncccc2Cl)CC1	i
CC1CC(=O)[C@]2(O)C(C(=O)OCCc3ccc(O)cc3)=CO[C@@H](O[C@@H]3O[C@H](CO)[C@@H](O)[C@H](O)[C@H]3O)[C@H]12 (some centres undefined)	i
CCC(C)NC(=O)CSc1nnc2n(CCC(=O)NCC(C)C)c(=O)c3ccccc3n12 (centres undefined)	i
O=C(CC1CCCCC1)NC1CCN(C(=O)c2cc(-c3cccc(Cl)c3)n[nH]2)CC1	i
COc1ccc(N2CCN(C(CNS(=O)(=O)c3ccc(Cl)cc3)c3cccnc3)CC2)cc1 (centres undefined)	i
COc1cc2nc(SCC(=O)Nc3ccc(Cl)cc3)[nH]c(=O)c2cc1OC	i
CC(=O)Cn1c(=O)c2c(nc3n2CC(C)CN3Cc2ccccc2)n(C)c1=O (centres undefined)	i
COc1cc(NC(=O)c2cccnc2SC)ccc1N1CCCC1=O	i
CCOCC(=O)NCCN1CCN(S(C)(=O)=O)CC1	i
Cc1ccc(C)c(S(=O)(=O)NCC(=O)Nc2ccc(F)c(Cl)c2)c1	i
Cc1cc(C(=O)NCCN2CCN(c3ccccc3F)CC2)no1	i
Cc1cc(NC(=O)c2ccc(F)c(F)c2)n(-c2nc(-c3ccc4c(c3)OCO4)cs2)n1	i
COCCNC(=O)c1cc2c(=O)n3ccccc3nc2n(CCc2ccccc2)c1=N	i
CN(C)c1ccc(C2C3=C(CC(C)(C)CC3=O)Nc3c2c(=O)[nH]c(=O)n3C)cc1 (centres undefined)	i
The listing continues:
SMILES	GIRK2 act
COC(=O)c1ccc(NC(=O)Cn2nc3c4cc(-c5ccc(OC)cc5)nn4ccn3c2=O)cc1	i
Cc1ccc(-n2c(=O)c3ccccc3n(CC(=O)N3CCC(C)CC3)c2=O)cc1	i
Cc1ccc(-c2noc(-c3cn[nH]c3-c3ccccc3)n2)cc1C	i
COCCn1nnn(-c2ccc(NC(=O)c3ccsc3)cc2)c1=O	i
COc1cc(O)c(Cc2ccccc2O)c(O)c1C(=O)/C=C/c1ccccc1	i
CC(=O)N1CCC(CSCc2ccco2)CC1	i
O=C(c1cnn(-c2ccccc2)n1)N1CC(c2nc3ccccc3[nH]2)C1	i
O=C(CCCn1cccc1)Nc1cc2ccccc2oc1=O	i
CC(C)Cn1c(=O)c2ccc(C(=O)NC(C)C)cc2n2c(=O)n(CC(=O)NC(C)C)nc12	i
Cn1nc2n(Cc3ccccc3)c(=O)c3ccc(C(=O)NC4CCCCC4)cc3n2c1=O	i
O=S(=O)(CCc1ccccc1)NCC1(O)CCOc2ccccc21 (centres undefined)	i
COc1cc(C(=O)N2CCN(Cc3nc(-c4ccco4)cs3)CC2)cc(OC)c1OC	i
Cc1ccccc1Cn1cc(S(=O)(=O)N2CCCC2)ccc1=O	i
COc1ccc(S(=O)(=O)NCCn2nc(-c3ccc(F)cc3)ccc2=O)cc1F	i
Cc1c(CNC(=O)c2c(F)cccc2F)sc2nc(-c3ccc(F)cc3)cn12	i
O=C(c1cnn(-c2ccccc2)n1)N1CCN(C(=O)C2CC2c2cccs2)CC1 (centres undefined)	i
COC(=O)c1ccc(Oc2coc3c4c(ccc3c2=O)OCN(Cc2ccccc2OC)C4)cc1	i
COc1ccc(-c2csc3c(=O)n(CC(=O)Nc4cc(Cl)ccc4C)cnc23)cc1	i
COc1cccc(-n2ncc3c(N/N=C\c4ccc(C)cc4)ncnc32)c1	i
CCCc1cnc2c(c1SCC(=O)NCC1CCCO1)c(=O)n(C)c(=O)n2C (centres undefined)	i
COC(=O)Cn1c2ccc(OC)cc2c2nc3ccccc3nc21	i
O=C(NCc1cccs1)Nc1cccc(-c2nc3ccccc3[nH]2)c1	i
CN1CCC(CNC(=O)NCc2ccc(F)cc2)CC1	i
O=C(c1ccccc1C(F)(F)F)N1CCN(CC(O)c2cccs2)CC1 (centres undefined)	i
O=C(Cc1noc2ccccc12)NCCn1nc(-c2ccco2)ccc1=O	i
COc1cccc(C(=O)Nc2ccc3c(c2)CCC(=O)N3)c1	i
COCCN(Cc1ccoc1)C(=O)c1c(F)cccc1F	i
O=C1/C(=C/c2ccc3c(c2)OCO3)Oc2c1ccc1c2CN(CCN2CCOCC2)CO1	i
COc1ccc(C)c2sc(N(CCCn3ccnc3)C(=O)Cc3ccccc3)nc12	i
CCOC(=O)COc1ccc2c(c1)O/C(=C\c1cc(OC)c(OC)cc1OC)C2=O	i
Cc1noc(C)c1CC(=O)Nc1cc(N2CCN(c3ccccc3)CC2)ncn1	i
Cc1csc(C(=O)N2CCN(CCn3cccn3)CC2)c1	i
Cc1ccc(N(C)S(=O)(=O)c2ccsc2C(=O)Nc2cccc(Br)c2)cc1	i
NC(=O)c1ccccc1NC(=O)C1COCC(=O)N1Cc1ccccc1 (centres undefined)	i
O=S(=O)(c1ccc(Br)s1)N1CC(c2nc(C3CC3)no2)C1	i
CCOc1ccc(-c2noc(Cn3nc4ccc(-c5ccc(C)cc5)nn4c3=O)n2)cc1OC	i
COc1cccc(CNS(=O)(=O)c2cn(C)nc2C)c1	i
Cc1ccc(-c2nc(Cn3nnc(-c4nc(-c5ccc6c(c5)OCO6)no4)c3C)c(C)o2)cc1	i
COc1cc(C(C)=O)ccc1OCC(=O)NCCOc1ccc2c(c1)OCO2	i
CCn1cc(C(=O)Nc2cccc3nsnc23)c(=O)c2ccc(C)nc21	i
COc1ccccc1C(=O)Nc1noc2nc(C)ccc12	i
COc1c2c(c(C)c3c1C(=O)OC3)O[C@@]1(C)CCC3(C(C)(C)O)OC(=O)CC[C@]3(C)[C@H]1C2 (some centres undefined)	i
CC1(C)CC[C@]2(C(=O)O[C@@H]3O[C@H](CO[C@@H]4O[C@H](CO)[C@@H](O)[C@H](O)[C@H]4O)[C@@H](O)[C@H](O)[C@H]3O)CC[C@]3(C)C(=CCC4[C@@]5(C)CC[C@H](O[C@@H]6OC[C@H](O)[C@H](O)[C@H]6O)[C@@](C)(CO)C5CC[C@]43C)[C@@H]2C1 (some centres undefined)	i
Cc1cc(C)c(NC(=O)CSc2nc3c(sc(=S)n3-c3ccccc3C)c(=O)[nH]2)c(C)c1	i
Cc1cc(C)c(NC(=O)Cn2nc3c(Oc4ccc(Cl)cc4)nccn3c2=O)c(C)c1	i
Cn1c(=O)[nH]c(=O)c2c1nc1n2CCCN1	i
Cc1nccn1-c1ncc(NC(=O)Cn2cnc3ccccc32)cn1	i
CCCCOc1ccc(S(=O)(=O)NCCn2ncccc2=O)cc1	i
COc1ccccc1-n1nnc(C(=O)N2CCN(S(C)(=O)=O)CC2)c1-c1ccccn1	i
O=C(c1c(F)cccc1Cl)N1CCC2(CC1)OCCCO2	i

Arranged by count of non-hydrogen atoms (largest number first): some entries from above
SMILES	GIRK2 act
COC(=O)c1ccc(NC(=O)Cn2nc3c4cc(-c5ccc(OC)cc5)nn4ccn3c2=O)cc1	i
COc1ccc(N2CCN(C(CNS(=O)(=O)c3ccc(Cl)cc3)c3cccnc3)CC2)cc1 (centres undefined)	i
COc1ccc2c(=O)c3c(oc2c1)C(=O)N(CCCN1CCOCC1)C3c1ccccc1 (centres undefined)	i
CN1CCN(c2sc(S(=O)(=O)c3ccccc3)nc2S(=O)(=O)c2ccc(Cl)cc2)CC1	i
Cc1noc(-c2ccn3c(=O)n(Cc4nc(Cc5ccccc5C)no4)nc3c2)n1	i
COc1ccc(S(=O)(=O)NCCn2nc(-c3ccc(F)cc3)ccc2=O)cc1F	i
Cc1cccc(S(=O)(=O)C(C#N)c2nc3ccccc3nc2N2CCCC2)c1 (centres undefined)	i
O=C(c1ccoc1)N1CCC(CNS(=O)(=O)c2ccc3c(c2)CCO3)CC1	i
CCOc1ccc(NC(=O)CSc2ncccc2-c2nc(C)no2)cc1	i
COCCn1nnn(-c2ccc(NC(=O)c3ccsc3)cc2)c1=O	i
Cc1ccccc1Cn1cc(S(=O)(=O)N2CCCC2)ccc1=O	i
Cc1nc(-c2ccccc2Cl)sc1CNC(=O)NC(C)C	i
CC(C)S(=O)(=O)Nc1ccc(N2CCCS2(=O)=O)cc1	i
O=C(C1CCC1)N1CCC(CSC2=NCCS2)CC1	i
CC(=O)N1CCC(CSCc2ccco2)CC1	i

(next part)
SMILES	GIRK2 act
CS(=O)(=O)c1cccc2sc(N3CCN(C(=O)Cc4ccc(F)cc4)CC3)nc12	i
COc1cccc(NC(=O)Cn2cnc3c(-c4ccncc4)nsc3c2=O)c1	i
O=C(CCc1c[nH]c2ccccc12)OCC(=O)c1cccc([N+](=O)[O-])c1	i
CCOC(=O)CCC(=O)N1CCN(c2ncnc3c2nnn3-c2ccc(Cl)cc2)CC1	i
Cc1ccccc1-n1c(-c2ccccc2)c[nH]c1=S	i
CCCN(C)c1nccn2c(=O)n(CC(=O)Nc3cccc(C(C)C)c3)nc12	i
Cc1sc2ncnc(Cl)c2c1-c1ccccc1	i
Cn1nc(C(=O)N2CC(c3nc(-c4ccccc4)no3)C2)ccc1=O	i
O=C(NCCC(O)c1ccoc1)C(c1ccccc1)c1ccccc1 (centres undefined)	i
CC(=O)Nc1ccc(S(=O)(=O)NC2(c3nc(C4CC4)no3)CCCCC2)cc1Cl	i
Cc1ccc(S(=O)(=O)N(C)c2cc(S(=O)(=O)N(C)CCCC(=O)O)c(C)cc2C)cc1	i
O=C(NCCCc1ccccc1)NCCCn1ccnc1-c1ccccc1	i
COc1ccc(-c2cc3c(SCC(=O)NCc4ccccc4Cl)nccn3n2)cc1	i
COc1ccc(C(=O)N2CCN(c3oc(-c4cccc(Cl)c4)nc3C#N)CC2)cc1	i
CCOc1ccc2ccccc2c1C(=O)NCC1CCS(=O)(=O)C1 (centres undefined)	i
O=C(Nc1cnc(N2CCOCC2)nc1)c1cccs1	i
O=S(=O)(c1cccc2cccnc12)N1CCCCC1	i
COCCCn1c(C(=O)NCc2ccc(F)cc2)cc2c(=O)n3cccc(C)c3nc21	i
O=C(NN1CCOCC1)C1CCCN(c2ccc(-c3ccc(F)cc3)nn2)C1 (centres undefined)	i
Cc1noc(C)c1S(=O)(=O)NCCc1nc(-c2cccs2)cn1C	i
Cc1ccc(NC(=O)C(=O)NC(C)c2ccccc2)cc1C (centres undefined)	i
CCCCOc1ccc(NC(=O)NCc2cc(-c3ccncc3)n(C)n2)cc1	i
Cn1c(=O)c2cc(C(=O)NCC3CCCO3)n(Cc3ccco3)c2n(C)c1=O (centres undefined)	i
CC1CN(C)c2nc3c(c(=O)[nH]c(=O)n3C)n2C1 (centres undefined)	i
Cn1nc(CNC(=O)Cc2cccc3ccccc23)cc1-c1ccccn1	i
COc1cc(NC(=O)Cn2c(=O)n(C3CC3)c(=O)c3nscc32)cc(OC)c1	i
O=C(c1ccc2nc[nH]c2c1)N1CCN(CCn2cccn2)CC1	i
O=c1ccn(-c2ccc(F)c(F)c2)nc1-c1nc(-c2ccc(Br)cc2)no1	i

Assay outcomes from PubChem.
